hNpr1 antagonist – antagonists of human natriuretic peptide receptor Npr1; P16066; HEK293 hNpr1 GloSensor cGMP, ANP-stimulated luminescence; Potency, µM (highest dose often 46.3 µM), for the others: at the highest dose activity change, negative = inhibition, actives largely listed as inhibitors; 76,000 compounds, 1.6% hits; active = well fitted inhibition curve with a large enough effect; inconclusive = small, poorly fitted or top-dose-only effect; inactive = no such curve, though single readings can be large or run the other way;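 note: nearly all actives have a fitted effect of over 60% in size; nearly all hits also lower the signal before the agonist is added; a reference antagonist and vehicle were the controls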
Target sequence (P16066 whole entry, looked up): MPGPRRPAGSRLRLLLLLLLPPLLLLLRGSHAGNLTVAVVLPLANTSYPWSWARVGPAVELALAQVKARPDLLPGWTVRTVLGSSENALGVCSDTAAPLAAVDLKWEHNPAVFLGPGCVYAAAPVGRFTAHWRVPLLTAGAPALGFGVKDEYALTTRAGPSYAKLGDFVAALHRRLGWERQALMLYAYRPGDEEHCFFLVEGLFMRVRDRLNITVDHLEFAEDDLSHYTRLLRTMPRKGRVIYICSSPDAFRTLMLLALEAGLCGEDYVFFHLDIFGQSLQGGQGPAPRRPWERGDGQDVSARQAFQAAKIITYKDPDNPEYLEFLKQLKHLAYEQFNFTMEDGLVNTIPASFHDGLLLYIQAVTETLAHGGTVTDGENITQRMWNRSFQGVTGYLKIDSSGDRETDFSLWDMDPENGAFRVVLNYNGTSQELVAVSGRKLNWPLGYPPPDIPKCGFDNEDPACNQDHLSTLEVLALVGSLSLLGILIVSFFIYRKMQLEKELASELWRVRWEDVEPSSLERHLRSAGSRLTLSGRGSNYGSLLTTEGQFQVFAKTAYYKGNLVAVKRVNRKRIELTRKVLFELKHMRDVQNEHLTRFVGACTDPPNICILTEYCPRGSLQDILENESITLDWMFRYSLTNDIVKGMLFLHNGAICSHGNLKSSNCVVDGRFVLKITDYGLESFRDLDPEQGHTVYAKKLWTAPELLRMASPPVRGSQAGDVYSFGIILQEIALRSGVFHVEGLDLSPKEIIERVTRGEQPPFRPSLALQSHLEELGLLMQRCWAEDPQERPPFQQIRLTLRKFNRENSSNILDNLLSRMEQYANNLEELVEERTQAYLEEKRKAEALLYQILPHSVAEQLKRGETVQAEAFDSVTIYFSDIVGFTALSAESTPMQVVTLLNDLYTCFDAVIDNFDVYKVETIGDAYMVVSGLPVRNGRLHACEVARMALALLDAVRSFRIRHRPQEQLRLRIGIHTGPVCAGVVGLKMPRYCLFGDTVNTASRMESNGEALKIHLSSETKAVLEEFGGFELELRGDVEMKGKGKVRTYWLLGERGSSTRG
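HEK293 cells stably expressing human Npr1 and cGMP GloSensor pGS-40F, loaded 2 h with 2% GloSensor reagent, given compound 30 min at room temperature. Luminescence read before and 20 min after 0.1 nM hNppA.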
An asterisk follows results filed as active; ? = inconclusive; [ ] = remark or other dose. % is set by controls: 0 for no effect and ±100 for the full control effect; potency is the fitted concentration of half-maximal effect. A portion of the library; count on the stated rates, not on these rows.

Structure	hNpr1 antagonist
CC[C@H]1CN(C(=O)NC(C)C)CC[C@H]1CC(=O)N1CCC(C(=O)OC)CC1	-1.0%[70.6 µM]
CN(C)C[C@@H]1CN(c2ccncn2)C[C@H]1NC(=O)c1cc(C2CC2)[nH]n1	8.1%
CN(C)c1ccc(-c2nc(C3CC(=O)N(c4ccc(F)cc4)C3)no2)cc1 (stereo not drawn)	-0.6%
Cc1nc(C)c(C(=O)NCC2Cn3cccc3C(=O)N2Cc2ccccc2)s1 (stereo not drawn)	-3.4%
COc1ccc2nc(C[C@@H]3C[C@@H](C(C)C)[C@H](CNC(=O)COCC(=O)O)C=C3C)[nH]c2c1	-4.5%[70.6 µM]
CCc1cccc(C)c1NC(=O)Cn1c(N(C)Cc2ccccc2)nc(C)cc1=O	-16.8%
COC[C@@H]1CN(Cc2ccc(C)o2)C[C@H]1C(=O)N(C)C	4.6%
CN(C)CC1(O)CCCN(Cc2ccc(Oc3ccc(Cl)cc3)cc2)C1 (stereo not drawn)	-5.5%
CC(=O)N1CCN([C@H]2[C@@H]3OC[C@@H](O3)[C@@H](NC(=O)Nc3ccc(F)cc3)[C@@H]2O)CC1	-0.4%[70.6 µM]
COc1ccc(-c2nn(-c3ccccc3)cc2CN2CCC(CO)CC2)c(F)c1	1.8%
O=C(Cn1ccn2nc(-c3ccc(F)cc3)c(CO)c2c1=O)Nc1ccc2c(c1)OCCO2	3.6%
Cc1nc2ncccn2c1C(=O)N1CCNCC(C(=O)O)C1 (stereo not drawn)	0.0%
COC(=O)C1=CN(CC(=O)N(C)c2ccccc2)S(=O)(=O)N=C1C	-0.7%
CN(CCc1ccccn1)[C@@H]1[C@H](O)[C@H](CO)O[C@@H]1CNC1CCOCC1	2.2%
CC(C)C[C@H](CO)NC(=O)C[C@@H]1c2nc(NC(=O)C(C)(C)C)sc2C[C@@H]2[C@](C)(CO)[C@H](O)CC[C@]21C	-0.8%
O=C(Nc1ccccc1)O[C@@H]1CO[C@H]2[C@@H]1OC[C@@H]2NC(=S)Nc1ccc(F)cc1	?
Cc1ccc(C(=O)N2CCN(C3CCN(C)C3=O)CC2)cc1C (stereo not drawn)	0.3%
COCc1ccc2c(c1)c(OC(C)(C)C(=O)Nc1ccn(C)n1)nn2CCC(C)C	-1.3%[70.6 µM]
O=c1[nH]c(C2CCCN(Cc3ccc(OC(F)(F)F)cc3)C2)nn1-c1ccc(Cl)cc1 (stereo not drawn)	-27.8%
O=C(c1ccno1)N1C[C@@H]2OCC(=O)N(CC3CCCCC3)[C@@H]2C1	-1.9%[70.6 µM]
Cn1cnc(S(=O)(=O)N2CCC(C(=O)N3CCCCCCNC(=O)CC3)CC2)c1	2.5%
Cc1cc(F)ccc1NC(=O)CCC1CCCN(C(=O)Cc2ccc3c(c2)OCO3)C1 (stereo not drawn)	-4.6%
CCCC(=O)Nc1cccc(C(=O)NCCN2N=C(c3ccccc3)CCC2=O)c1	-9.3%
Cc1nc(C2CC(O)C2)cc(N2CCN(CCc3ccccc3)CC2)n1 (stereo not drawn)	-1.2%
Cn1nc2n(c1=O)CCC(NC(=O)CN1CCCC1=O)CC2 (stereo not drawn)	0.7%
COC1CN(C2CCN(C(=O)Cc3ccccc3)CC2)C12CCOCC2 (stereo not drawn)	-2.2%
COc1ccc(-c2ccc3nc(-c4ccc(F)c(F)c4)oc3c2)c(OC)c1OC	-16.3%
Cn1nc(C2CCCN(C(=O)CCc3ccccc3)C2)n(-c2ccccc2)c1=O (stereo not drawn)	-2.9%
CN(C)Cc1cccc(-c2cc(-c3ccncc3)c3cncn3c2)c1	8.5%[70.6 µM]
COCC1CCN(C(=O)C2CCCN(S(=O)(=O)c3cn(C)cn3)CCC(=O)NCC2)CC1 (stereo not drawn)	-3.3%
CC(C)NC(=O)N(C1CC1)C1CCOC2(CCN(C(=O)C3(c4ccccc4)CC3)CC2)C1 (stereo not drawn)	-1.7%
C[C@@H](NS(C)(=O)=O)c1onc(-c2cccnc2)c1C(=O)O	1.4%[70.6 µM]
Cc1ccc(C)c(CN2C[C@@H]3C(=O)N(CCN4CCc5ccccc5C4)C(=O)[C@@H]3C2)c1	-10.5%
CCn1ncc(N2CCCC(CC(=O)Nc3ccc(C)c(C)c3)C2)cc1=O (stereo not drawn)	7.4%
COC(=O)[C@H](NC(=O)[C@@]1(O)C[C@@H](O)[C@H](O)[C@@H](NC(=O)Nc2ccc(C)cc2)C1)C(C)C	3.6%[70.6 µM]
Cc1cccc(C(C(=O)N2CCN(CC(=O)NC(C)C)CC2)N(C)C)c1 (stereo not drawn)	4.2%
Cn1c(CN2CCCCC2)nnc1C1CCCN(C(=O)c2cocn2)C1 (stereo not drawn)	-1.8%
Clc1cccc(-c2cnc([C@@H]3COCCN3Cc3cnc[nH]3)[nH]2)c1	-20.3%[70.6 µM]
CC(C)=CCC1(CO)CCCN(C(=O)CCN2CCCCCC2=O)C1 (stereo not drawn)	-2.6%
Cn1cc(-c2ccc3c(n2)CN(Cc2ccc(C(F)(F)F)cc2)C(=O)CO3)cn1	-16.2%[70.6 µM]
CC1(c2ccccc2)N(Cc2ccccc2C#N)C(=O)OC12CCN(Cc1ccccc1F)CC2 (stereo not drawn)	-16.3%
O=C(NCCC1CCN(C(=O)Nc2ccc(F)cc2)CC1)c1cc(F)ccc1F	2.6%
CSCC(=O)N1CC[C@H](NC(=O)Nc2ccc(F)cc2F)[C@H]1C(=O)N(C)CC(N)=O	2.0%[70.6 µM]
COC1CCOC2(CCN(S(=O)(=O)c3c(C)noc3C)CC2)C1 (stereo not drawn)	1.3%
COc1ccc(C2Cn3cnc(-c4nc(-c5ccc(SC)cc5)no4)c3CO2)cc1 (stereo not drawn)	-1.8%
COc1ccc(CN2CCC3(CC2)CC(c2cccnc2)=NO3)cc1	3.3%
Cc1cc(C)cc(NC(=O)N2CCCC(Cn3cnc4cccnc43)C2)c1 (stereo not drawn)	1.6%
CCc1ccc(CN2CCOC(Cc3ccc(OC)cc3)C2)o1 (stereo not drawn)	-6.1%
O=C(c1ccccc1)N1CCC(Oc2cccc(F)c2)(C(=O)O)CC1	-0.1%
CCn1nc(C)c(-c2cc(C(=O)NCC3Cn4cccc4CN3C)no2)c1C (stereo not drawn)	-0.5%
COCCN(Cc1cnn(C)c1)C(=O)C1CC2(CCNCC2)CN1 (stereo not drawn)	1.3%
COc1ccc(-c2nn(-c3ccccc3)cc2CN2CCCC(C#N)C2)c(F)c1 (stereo not drawn)	4.6%
CCCn1c(C)cnc1C1CCN(C(=O)C2CCCC2)C1 (stereo not drawn)	6.8%
Cc1noc2c(NCCc3ccccn3)cc(-c3ccc(Cl)cc3)nc12	-20.1%[70.6 µM]
Cc1noc2c(-c3cccnc3N3CCOCC3)cc(-c3ccccc3)nc12	-13.1%[70.6 µM]
CC(=O)c1ccc(NC(=O)Cn2c(-c3ccc(Cl)cc3)nc(C)cc2=O)cc1	-17.0%
COc1ccc(CNC(=O)Cn2c(C)cc3nc4n(c(=O)c32)CCC4)cc1	6.0%
CN1CCCN(CC(=O)N2CCN(C)C3(CCNC(=O)CC3)C2)CC1 (stereo not drawn)	-0.2%
COc1cccc(CCC(=O)N2CCN(C(=O)c3nnn4c3COC(c3ccc(C)cc3)C4)CC2)c1 (stereo not drawn)	?
OCC1(O)CCN(C2CCN(c3ccc4c(c3)OCO4)CC2)CC1	-0.6%

Next part:
SMILES,hNpr1 antagonist
COc1ccc(NC(=O)Cn2cccc2-c2nc(-c3ccccc3)no2)cc1,-3.3%
Cc1ccc(C(=O)N[C@H]2CO[C@H]3[C@@H]2OC[C@@H]3n2cc(-c3ccccc3)nn2)cc1,?
O=C1NC2(CCCN([S+](=O)([O-])c3ccsc3)C2)COc2ccccc21 (stereo not drawn),9.6%
CC(=O)N1CCN(C(=O)C2(C)CCc3cnc(Nc4ccccc4)nc32)CC1 (stereo not drawn),-3.5%[70.6 µM]
COc1ccc(OC)c(CNC(=O)CN2CC3CC(C2)[C@H]2CCCC(=O)N2C3)c1 (stereo partly drawn),3.7%
COc1cccc(NC(=O)C2(C)CCCc3cnc(N(C)C)nc32)c1 (stereo not drawn),-2.9%[70.6 µM]
CCN(CC)C(=O)N1CCCC(Cc2ncc(C)n2Cc2ccccc2)C1 (stereo not drawn),-1.6%
CC(=O)NC1(C)CCN(Cc2ccc(Nc3ccc(N4CCOCC4)c(F)c3)cc2)C1 (stereo not drawn),1.6%[70.6 µM]
CNC(=O)[C@@H]1CN(S(=O)(=O)c2cccc(C#N)c2)C[C@H]1C1CCN(C)CC1,13.2%
O=C(CC[C@H]1NC(=O)c2ccccc2NC1=O)Nc1nnc(C2CC2)s1,1.4%
O=C(c1ccc(Br)o1)N1CCCN(c2cc(-c3ccc(F)cc3)[nH]n2)CC1,-5.7%
O=C(c1ccc(F)c(F)c1)N1CCC[C@H]1c1nc(-c2ccccc2Cl)no1,0.1%
COc1cccc(CNC(=O)Cn2c(-c3ccc(F)cc3)nc(C)cc2=O)c1,0.3%
COc1ccccc1C(=O)N1CCCCCC1CN1CCOCC1 (stereo not drawn),-1.5%
Cc1c(CNC(=O)c2ccc3nc(-c4ccc(F)cc4)cn3c2)cnn1C,-15.4%
CN(C)c1ccc(C(=O)N2CCC(n3cc(-c4nc(-c5ccccc5)no4)nn3)C2)cc1 (stereo not drawn),0.0%
CN1[C@@H](CCC(=O)NCc2cccnc2)CNC(=O)[C@@H]2[C@H]1CCN2Cc1ccc(S(C)(=O)=O)cc1,-2.0%
CN1CCC(N2CC3(CCC2=O)CCN(C(=O)Cn2ccnc2)CC3)C1 (stereo not drawn),0.6%
Nc1nc2c(s1)C(c1cccc(F)c1F)CC(=O)N2 (stereo not drawn),6.9%
O=C(CN1CCOCC1)N[C@@H]1CN(Cc2ccccc2)C[C@H]1CO,-0.4%
C=CCCC(CN1CCSCC1)Oc1ccc(C#N)cn1 (stereo not drawn),5.0%
COc1ccc(C(=O)N2CCC(n3cc(-c4nc(-c5ccccc5)no4)nn3)CC2)c(C)c1,?
O=C1NC2(CCCN(C(=O)c3ccc(C(F)(F)F)cc3)C2)Oc2ccccc21 (stereo not drawn),0.0%
COc1ccc(-c2nc3c(c(-c4ccccc4)n2)CN(C(C)=O)CC3)cc1,2.1%
Cc1ccccc1CN1CCC2(CC1)COCCN2C(=O)OCc1ccccc1,-17.3%[70.6 µM]
O=C(c1ccc(=O)[nH]c1)N1CCCC(CCc2cccc(C(F)(F)F)c2)C1 (stereo not drawn),-6.0%
COc1cccc(CN2CCCCCNC(=O)[C@@H]3CCC[C@@H]32)c1OC,-0.7%
CCc1cccc(C)c1NC(=O)CN1C(=O)NC2(CCC(C)CC2)C1=O (stereo not drawn),-3.8%
Cc1cccc(C(=O)N2CCCCCNC(=O)[C@@H]3CCCC[C@@H]32)c1,-1.2%
CN(Cc1ccc(-c2ccccc2)cc1)C(=O)Cc1ccc(F)cc1,-24.4%[70.6 µM]
COc1ccc(CN2C[C@H](O)C[C@H]2c2nc(-c3cccc([N+](=O)[O-])c3)no2)c(OC)c1OC,4.1%
O=C(C1CCC1)N1CCN(C(=O)Cc2ccsc2)[C@H]2CS(=O)(=O)C[C@H]21,1.5%
COc1ccccc1CNC(=O)c1cc2c(N(C)Cc3ccccc3)nc(C)cn2n1,0.9%
Cc1nc2c(c(-c3ccc(O)cc3)n1)CN(Cc1ccc(F)cc1)CC2,-14.9%
Cn1cccc1CN1CCCC2(CC(c3cccc(C(F)(F)F)c3)=NO2)C1 (stereo not drawn),-3.0%
Clc1ccc(CNC[C@H]2Cn3c(-c4ccccc4)cnc3CO2)cc1,?
COc1cccc(CNC(=O)[C@@H]2C[C@@H](O)CN2C2CCN(C(=O)c3ccc(OC)cc3OC)CC2)c1,1.1%
COC(=O)[C@@H]1Cc2nc[nH]c2CN1C(=O)c1ccccc1,1.6%[70.6 µM]
CN(C)CCCNC(=O)c1c(OCC2CC2)cc(=O)n2c1CCCCC2,0.1%
CN(CCC(C)(C)O)C(=O)c1cc2c(C(F)(F)F)nn(C)c2s1,3.9%
CCCCNC(=O)c1noc(-c2ccc(C#N)cc2)n1,-10.0%
COc1ncccc1-c1ncc2c(n1)OCCN(Cc1ccc(F)cc1F)C2=O,-6.9%[70.6 µM]
COCCNC(=O)C1c2ccccc2C(=O)N(Cc2ccco2)C12CCCC2 (stereo not drawn),-4.3%
Cc1oc2c(c1C(=O)NCCN1CCCC(C)C1)CN(Cc1cccc(F)c1)CC2 (stereo not drawn),-9.8%
Cc1oc2c(c1C(=O)NCCCN1CCCCC1)CN(Cc1ccccc1)CC2,-5.8%
O=C(NC1CCCCC1)[C@@H]1C[C@@H](O)CN1C1CCN(C(=O)C2CCC2)CC1,5.1%
CCc1cn[nH]c1C1CCCN(C(=O)c2cccnc2SC)C1 (stereo not drawn),2.4%

Grouped by structure, the entries above with an NH in an aromatic ring
SMILES,hNpr1 antagonist
CN(C)C[C@@H]1CN(c2ccncn2)C[C@H]1NC(=O)c1cc(C2CC2)[nH]n1,8.1%
COc1ccc2nc(C[C@@H]3C[C@@H](C(C)C)[C@H](CNC(=O)COCC(=O)O)C=C3C)[nH]c2c1,-4.5%[70.6 µM]
O=c1[nH]c(C2CCCN(Cc3ccc(OC(F)(F)F)cc3)C2)nn1-c1ccc(Cl)cc1 (stereo not drawn),-27.8%
Clc1cccc(-c2cnc([C@@H]3COCCN3Cc3cnc[nH]3)[nH]2)c1,-20.3%[70.6 µM]
O=C(c1ccc(Br)o1)N1CCCN(c2cc(-c3ccc(F)cc3)[nH]n2)CC1,-5.7%
O=C(c1ccc(=O)[nH]c1)N1CCCC(CCc2cccc(C(F)(F)F)c2)C1 (stereo not drawn),-6.0%
COC(=O)[C@@H]1Cc2nc[nH]c2CN1C(=O)c1ccccc1,1.6%[70.6 µM]
CCc1cn[nH]c1C1CCCN(C(=O)c2cccnc2SC)C1 (stereo not drawn),2.4%

Source: PubChem (National Center for Advancing Translational Sciences (NCATS))
